Compound activity as filed in PubChem.
PrP 5UTR inh – inhibition of PrP 5' UTR reporter expression; 340,000 tested, 0.35% active; AID 488862; inhibition, % (test concentration not listed); cell-based PrP 5' UTR mRNA reporter, plate reader;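 active = every replicate at 50% or more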;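 note: 0 = median of the neutral control wells; tested in H4 reporter cells; numbers are from one replicate; inactives centre near -14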
ugtP null kill – compounds lethal to S. aureus RN4220 ugtP deletion mutant. OD600 growth, 16 h; some inactives read as strong as hits. growth inhibition, % (concentration not given with the values). 330,000 tested, 0.54% active. AID 1259309;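 active = z-score under -3 and OD600 up to 0.15 on both plates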;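 note: plate controls were untreated wells for no effect and antibiotic for full effect; wells of about 80 µL received 100 nL stock; the first replicate is given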
Sa RN4220 lethal – kills Staphylococcus aureus RN4220; AID 1259311; inhibition, % (no concentration beside the values); S. aureus RN4220 growth, OD600, 16 h; 330,000 tested, 0.33% active;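 active = z-score of -3 or lower and OD600 up to 0.18 on both plates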;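 note: plate controls were untreated cells for no effect and reference antibiotic for full effect; stock transfer was 100 nL into about 80 µL; one replicate is shown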
Bead autofluor – counter-screen for toxin protease inhibitors: compound fluorescence | compound autofluorescence counterscreen, microsphere flow cytometry; stronger effect = higher value | fluorescence intensity (concentration not given with the values) | 360,000 tested, 3.1% active;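 active = at least 3 SD above the mean of all compounds, about 16000 in these data; inconclusive = too few beads counted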;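 note: 100 nL of 1 mM stock went into each well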
BJeLR lethal – BJeLR cell viability loss; BJeLR (HRASV12) viability, CellTiter-Glo ATP luminescence, 48 h; reference of the scale not given here; inhibition, % (concentration not given with the values); 300,000 tested, 0.17% active;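 active = replicate mean above 50%; inconclusive = above 50% but judged a plate artefact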;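 note: 50 nL library stock added to about 25 µL; numbers are from one replicate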
Mtb hypoxia rep – inhibitors of hypoxia-regulated fluorescent reporter in Mycobacterium tuberculosis; M. tuberculosis hypoxia-regulated fluorescent reporter, fluorescence; fluorescence inhibition, % (no concentration beside the values); 300,000 tested, 0.1% active;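 active = 35 to 45% if threefold the growth effect, above 45% if 1.5-fold the growth effect; inactive = the rest, general growth blockers included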;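 note: wells of about 50 µL received 100 nL stock; 0% = vehicle wells and 100% = reference inhibitor wells; whole bacteria with a GFP reporter of the hypoxia response; strong numbers were not always called active; many hits fall short of the cut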
Mtb hypoxia rep growth – recorded beside Mtb hypoxia rep, whose call it bears; growth inhibition, %; measured here: M. tuberculosis growth (absorbance);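 0% = vehicle and 100% = reference antibiotic; read after six days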
Starred values were filed as active, the others as inactive; ? = inconclusive; nt = no result given; & = joins results of further samples.

SMILES	PrP 5UTR inh	ugtP null kill	Sa RN4220 lethal	Bead autofluor	BJeLR lethal	Mtb hypoxia rep	Mtb hypoxia rep growth
CC(Sc1nnc(C(F)(F)F)n1C)C(=O)Nc1ccc(N2CCOCC2)cc1 (stereo not given)	-31	0	-1.7	4559	nt	5	7
Cc1nc2[nH]c(=O)c3c(n2n1)NC1=C(C(=O)CC(C)(C)C1)C3c1ccc(F)cc1 (stereo not given)	-27	0	2.0	5199	-4	-6	5
COc1ccc(OCc2cc(C(=O)N(C)Cc3cnccn3)no2)c(Cl)c1	-26	10	5.1	6539	1	-1	-2
COc1ccc2c(c1)C=C(CN1CCN(Cc3ccccc3C)C(CCO)C1)CO2 (stereo not given)	-22	6	6.9	4562	-5	9	6
C=CCn1c(NCCc2ccccc2)nc2c1c(=O)n(C)c(=O)n2C	-1	-4	-6.0	2913	7	-5	13
O=C(Cc1cccs1)Nn1c(Cc2cccs2)nc2ccccc2c1=O	-31	-11	11	10372	4	-1	1
c1ccc(CC2CCN(Cc3nc(-c4ccccc4)no3)CC2)cc1	-47	69	0.6	10777	10	0	1
ClC(Cl)c1nnc(-c2ccccc2)c(-c2c[nH]c3ccccc23)n1	-4	3	-6.7	2573	7	nt	nt
NCC(=O)CCC(=O)O	-3	1	2.4	5190	3	-7	-7
COc1cc(/C=N/NC(=O)c2ccccc2Cl)ccc1Oc1ccc([N+](=O)[O-])cn1	-13	nt	nt	2598	-2	nt	nt
C=C1SC(=Nc2c(C)cc(C)cc2C)N(C(=O)c2sc3ccccc3c2Cl)C12CCCCC2	-14	26	-4.5	3477	-9	4	-7
Cc1cccc(C2=NN(c3ccccc3)[C@@H](C(=O)N3CCOC3=O)[C@@H]2c2ccc(F)cc2)c1	30	17	-4.8	3616	nt	-2	2
CN(C)CCNC(=O)c1coc(=O)c(Br)c1	-16	-6	-3.0	2758	3	-3	8
Cc1ccc(CN2C(=O)CSC(C)C2=O)cc1 (stereo not given)	nt	4	2.9	4048	19	2	-6
Cc1ccc(Cl)cc1N1CCN(C(=O)CSc2nnc3n2C(C)(C)Cc2ccccc2-3)CC1	-10	-7	-1.9	9334	11	1	6
CCC(=O)Nc1nonc1-c1nc2ccccc2n1CC(C)C	8	-4	0.0	4091	-2	-2	5
C=CCC(CC(=O)NC(CO)Cc1ccccc1)C(=O)NCC(OC(=O)C(CC=C)Cc1ccc(F)cc1)c1ccccc1 (stereo not given)	nt	-1&-4&-17	2.3&8.0&2.9	nt	nt	6&7&6	7&11&9
Cc1cc(NS(=O)(=O)c2ccc(NC(=O)CCSc3ccc(F)cc3)cc2)nc(C)n1	14	2	2.1	4594	-10	6	9
N#Cc1c(C(F)(F)F)cc(-c2ccccc2Cl)[nH]c1=O	0	18	40	11295	2	2	3
COc1ccc(CNC(=O)C23CC4CC(CC(Br)(C4)C2)C3)cc1	3	-2	-0.4	5627	-11	-10	9
Cc1ccc(CS(=O)Cc2ccc(C(=O)NC3CCC(C)CC3)o2)cc1 (stereo not given)	-19	3	1.9	5994	-3	11	-7
COc1cc(OC)cc(C(=O)N[C@H](C(=O)OCC(=O)Nc2cccnc2Cl)C(C)C)c1	-24	5	2.3	?	nt	5	3
O=C1CC(c2ccccc2Cl)=NN(c2ncnc3ccccc23)C1=O	-26	3	-4.7	4128	-10	-15	-7
Cn1nnnc1SCC(=O)Nc1cccc(S(=O)(=O)N2CCCCC2)c1	3	0	6.3	nt	nt	-4	-1
Cc1ccc(NC(=O)c2ccn(C(=O)Nc3ccccc3)n2)c(C)c1	-7	-6	5.5	4509	4	7	0
CCOc1ccc2nc(SCC(=O)N3c4ccccc4Sc4ccccc43)c(C#N)cc2c1	-20	4	0.4	2309	14	-1	-3
CC1Cc2ccccc2N1CC(=O)Nc1ccc(S(N)(=O)=O)cc1 (stereo not given)	7	5	2.2	4157	-8	-15	7
O=c1[nH]c(-c2ccccc2)c(-c2ccccc2)o1	-6	0	-0.4	3652	7	-3	4
O=C(O)CC1C(=O)OCN1C(=O)OCc1ccccc1 (stereo not given)	-53	16	3.0	7083	-4	15	4
Cc1ccc(S(=O)(=O)Nc2ccc3c(c2)C(=O)N([C@H](C)CO)C[C@@H](C)[C@@H](CN(C)C(=O)Nc2cccc4ccccc24)O3)cc1	-21	-7	1.4	3650	nt	-1	17
Cc1n[nH]c(C)c1S(=O)(=O)N1CCCC(C(=O)O)C1 (stereo not given)	-26	0	0.6	6508	nt	9	-3
COc1ccc(CCNCc2ccc(SC)cc2)cc1	nt	-2	-4.9	nt	-7	1	-14
Cc1cc(C)cc(OCC(=O)Nc2cc(C)on2)c1	-14	3	8.3	4167	-10	-2	5
Cc1ccc(NC(=O)COC(=O)CNC(=O)c2ccc(C)s2)cc1	-9	-2	-5.5	3638	8	2	-8
COc1ccccc1NC(=O)c1sc2nc(-c3ccco3)ccc2c1N	-17	11	3.3	3739	0	0	10
O=C(Nc1ccc([N+](=O)[O-])cc1)C1CC1(c1ccccc1)c1ccccc1 (stereo not given)	-17	-8	-4.0	1963	11	8	4
COc1ccc(C=NNC(=O)c2nc(-c3ccccc3)n(-c3ccccc3)n2)c(O)c1	nt	-8	6.8	nt	nt	10	2
CCCn1c(=NC(C)=O)c(C(=O)OCC)cc2c(=O)n3ccccc3nc21	-13	-2	7.1	12731	nt	-1	3
CCC(C)C1CNC(=O)C(=O)N1CCCc1cc(OC)c(OC)c(OC)c1 (stereo not given)	nt	4	4.6	nt	nt	11	7
CCOC(=O)C1CCN(C(=O)c2ccc3c(c2)C(=O)N(c2ccccc2C)C3=O)CC1	-22	8	3.8	6499	-1	2	2
CC(C)COC(=O)C1C2C=CC3(CN(C4CCCC4)C(=O)C13)O2 (stereo not given)	-11	0	-0.2	5796	6	nt	nt
CCOC(=O)c1c(C)[nH]c(C)c1C(=O)CSc1nc2ccccc2[nH]1	-28	1	22	10264	-13	15	4
COc1cc(/C=N/NC(=O)CC2C(=O)NN=C2C)ccc1O (stereo not given)	-29	nt	nt	4282	-8	nt	nt
Cc1ccsc1C=NNC(=O)CO	nt	2	5.7	nt	nt	-14	-9
O=C1CCCC2=C1C(c1ccsc1)CC(=O)N2c1ccccc1 (stereo not given)	-13	15	4.9	16054	5	-4	-2
CCC1=NN2C(=N)/C(=C/c3cc(C)n(-c4ccccc4)c3C)C(=O)N=C2S1	-23	-1	3.8	3091	4	10	-2
Cc1ccc(C(=O)Nc2cccc3ncccc23)cc1[N+](=O)[O-]	-20	1	-0.3	4165	2	-1	10
Cc1[nH]c2ccccc2c1C(=O)CSc1nc2ccccc2c(=O)n1CCCN1CCOCC1	-10	-22	-2.0	2892	0	-13	-2
CC(=O)c1cccc(NC(=S)N2CCN(CCN3C(=O)c4cccc5cccc(c45)C3=O)CC2)c1	-21	1	1.4	2613	-2	-1	-5
Cc1ccc(-n2c(SCC(=O)O)nc3sc4c(c3c2=O)CC(C)(C)SC4)cc1	-13	-2	2.4	3180	nt	-13	-4
COc1cc(OC)c(/C=N/NC(=O)c2ccc(NC(C)=O)cc2)cc1Br	-36	nt	nt	2215	0	nt	nt
CCOC(=O)C(CC(=O)O)N1CCCCC1 (stereo not given)	-26	13	1.2	2420	0	nt	nt
COc1ccccc1NC(=O)C(=O)NN=Cc1ccc([N+](=O)[O-])s1	nt	-2	15	nt	nt	3	-4
CN1C(=O)CCC2(C)C1=CCC1C2CCC2(C)C1CCC2(C)O (stereo not given)	-7	6	2.0	3890	nt	-4	6
COc1cccc(S(=O)(=O)NCc2ccc3c(c2)OCO3)c1	nt	7	7.6	9917	-7	6	2
O=C(NCC1CCCO1)c1ccc(/C=N/O)nc1 (stereo not given)	-41	nt	nt	4121	0	nt	nt
Cc1cc(C)c(S(=O)(=O)N2CCN(C(=O)C(C)Cn3nc(C)nc3C)CC2)c(C)c1 (stereo not given)	-19	-3	1.9	3781	-3	7	-4
Cn1cnnc1SCC(=O)Nc1ccc(S(N)(=O)=O)cc1	-3	11	2.4	2989	-7	10	7
O=[N+]([O-])c1ccc(OCc2nnc(-c3ccccc3)o2)cc1	-16	12	12	5234	nt	6	-3
Cn1c(C=Nc2nc3ccccc3[nH]2)nc2ccccc21	nt	-4	11	nt	nt	-4	3

Given as a markdown table: 3 of the compounds above.
| compound | PrP 5UTR inh | ugtP null kill | Sa RN4220 lethal | Bead autofluor | BJeLR lethal | Mtb hypoxia rep | Mtb hypoxia rep growth |
| --- | --- | --- | --- | --- | --- | --- | --- |
| CCC1=NN2C(=N)/C(=C/c3cc(C)n(-c4ccccc4)c3C)C(=O)N=C2S1 | -23 | -1 | 3.8 | 3091 | 4 | 10 | -2 |
| Cc1ccc(C(=O)Nc2cccc3ncccc23)cc1[N+](=O)[O-] | -20 | 1 | -0.3 | 4165 | 2 | -1 | 10 |
| Cc1[nH]c2ccccc2c1C(=O)CSc1nc2ccccc2c(=O)n1CCCN1CCOCC1 | -10 | -22 | -2.0 | 2892 | 0 | -13 | -2 |

Later entries
SMILES	PrP 5UTR inh	ugtP null kill	Sa RN4220 lethal	Bead autofluor	BJeLR lethal	Mtb hypoxia rep	Mtb hypoxia rep growth
COc1ccccc1C(=O)NCCC(=O)Nc1ncccc1O	-13	3	-0.4	6317	-9	-10	-6
Cc1ccc(S(=O)(=O)c2ccc(C)cc2)cc1	-11	5	9.7	5536	-5	6	7
Cc1ccccc1-c1nc(CS(=O)(=O)CC(=O)NCCN2CCCC2)c(C)o1	-5	-1	-1.4	5501	5	-1	-5
CCN(CC)CCN(C(=O)c1ccc(CN2CCCCC2)o1)C(C(=O)NC1CCCCC1)c1ccc(F)cc1 (stereo not given)	-21	2	1.8	2965	2	6	-6
COc1ccccc1N1CCN(C2CCCN(C(=O)c3snnc3C)C2)CC1 (stereo not given)	-9	-6	6.0	5059	12	9	-4
Cc1ccc(-c2cc(C(=O)Nc3cccnc3)c3ccccc3n2)o1	-3	3	5.2	5615	-1	7	-2
O=C(O)CCCN1C(=O)C(=O)/C(=C(/O)c2ccc(Cl)cc2)C1c1ccccc1 (stereo not given)	0	3	2.9	5010	-8	-6	-1
COc1cccc2cc(/C(=N/O)c3ccc(Br)cc3)oc12	-91	nt	nt	3510	3	nt	nt
Cc1cc(OCCN2CCN(S(=O)(=O)c3ccccc3F)CC2)ccc1C(C)C	-2	9	-0.8	9109	nt	-7	5
O=C(Nc1cccc(O)c1)c1cccc(S(=O)(=O)N2CCCC2)c1	-28	7	-1.5	2564	3	nt	nt
Nc1ccc(Cl)c(S(=O)(=O)Nc2ccccc2Cl)c1	12	nt	nt	4992	6	nt	nt
O=C(CSCCO)Nc1cccc([N+](=O)[O-])c1	-20	-1	3.4	2442	-6	2	0
Cc1cc(C(=O)Nc2cccc(O)c2)co1	-51	1	7.9	3390	7	8	9
CCOC(=O)C1CCCN(C(=O)C2CCN(c3nnc(-n4cccc4)s3)CC2)C1 (stereo not given)	-3	1	8.1	5934	-9	-3	8
CC(=O)c1ccc(NC(=O)CSc2cn[nH]n2)cc1	1	-4	2.4	5864	-2	6	0
Cc1nc2sc3c(c2c(=O)o1)CCC3	-21	-9	1.1	2472	12	nt	nt
COc1cccc(CNC(=O)CCC2CCCN(C(=O)c3cc4ccccc4o3)C2)c1 (stereo not given)	-105	3	6.5	3328	9	-5	-3
CCN(CC)CC(O)c1ccc(C2CCCC2)cc1 (stereo not given)	-26	3	2.2	2331	9	8	5
CCn1c(SCc2nc3ccccc3[nH]2)nnc1-c1cccnc1	-6	1	3.8	24875*	-3	8	5
CCOC(=O)c1c(C)[nH]c(C(=O)CN2C(=O)NC(C)(c3ccc4ccccc4c3)C2=O)c1C (stereo not given)	-24	-4	-8.0	20042*	-9	11	10
CSCC[C@H](NC(=O)c1cccnc1)c1nnc2ccccn12	-25	-3	-2.5	4985	13	-5	-3
CCOc1ccc(C=NNc2ccccn2)cc1	nt	-7	7.4	nt	nt	4	0
COCCCNC(=O)C1c2ccccc2Oc2ccccc21	-88	5	7.0	3595	-2	13	6
Cc1cc(NC(=O)CS(=O)(=O)c2cn(Cc3cccc(F)c3)c3ccccc23)no1	-4	-4	5.5	4188	-6	10	2
Cc1cc(C)nc(NS(=O)(=O)c2ccc(NC(=O)c3cc(=O)c4ccccc4o3)cc2)n1	-12	4	2.1	5368	1	25	17
